Source: PubChem BioAssay
AID923 = qHTS Assay for Allosteric/Competitive Inhibitors of Caspase-1: Spectroscopic Profiling in AFC Spectral Region | compound fluorescence, AFC spectral region (405/520 nm); almost no hit is shown here | Potency, µM (series often up to 57.5 µM), for inactives: at the top dose fluorescence increase, usual class: activators | actives 1.1% (n = 75,000); active = well fitted activation curve with a large enough effect;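 note: 0% is about no effect; scaled to a free AFC standard on each plate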
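Baseline compound fluorescence (AFC region, 405 nm ex/520 nm em) taken from the intercept of kinetic reads with 50 nM caspase-1 and 5 uM Ac-WEHD-AFC; normalized to an on-plate AFC standard curve; compounds titrated up to 57 uM.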
Numbers without * were called inactive; & = joins results of further samples. Potency is the fitted concentration of half-maximal effect. An excerpt. The share of hits here may be higher or lower than overall.

SMILES	AID923
O=C1c2ccccc2C(=O)c2c(O)c(O)cc(O)c21	-3.1%&-4.3%
Cc1cn([C@H]2C[C@H](O)[C@@H](CO)O2)c(=O)[nH]c1=O	1.6%
NC(=O)c1ccc([N+](=O)[O-])cc1Cl	-1.2%
Oc1cc2c(cc1O)C1c3ccc(O)c(O)c3OCC1(O)C2 (centres undefined)	-1.1%
NC(=O)NC(=O)Cc1ccccc1	0.0%
CCC(Cc1c(I)cc(I)c(N)c1I)C(=O)O (centres undefined)	-1.1%
Cc1ccc(C(=O)C(C)CN2CCCCC2)cc1 (centres undefined)	0.5%
CC1(C)OC2CC(=O)OC[C@@]23C1CC(=O)[C@]1(C)C3CC[C@@]2(C)C(c3ccoc3)OC(=O)C3O[C@@]321 (some centres undefined)	-0.8%
CC(C)(CO)[C@@H](O)C(=O)NCCCO	-1.1%
COC(=O)Nc1nc2ccc(S(=O)c3ccccc3)cc2[nH]1 (centres undefined)	4.9%
COc1ccc(-c2oc3c(CC=C(C)C)c(O[C@H]4OC(CO)C(O)C(O)C4O)cc(O)c3c(=O)c2O[C@@H]2OC(C)C(O)C(O)C2O)cc1 (some centres undefined)	-0.5%

By substructure, the compounds so far containing a carbonyl joined to an NH by a bond outside any ring.
SMILES	AID923
NC(=O)c1ccc([N+](=O)[O-])cc1Cl	-1.2%
NC(=O)NC(=O)Cc1ccccc1	0.0%
CC(C)(CO)[C@@H](O)C(=O)NCCCO	-1.1%
COC(=O)Nc1nc2ccc(S(=O)c3ccccc3)cc2[nH]1 (centres undefined)	4.9%

2 of these compounds in a different format.
| structure | AID923 |
| --- | --- |
| CCC(Cc1c(I)cc(I)c(N)c1I)C(=O)O (centres undefined) | -1.1% |
| Cc1ccc(C(=O)C(C)CN2CCCCC2)cc1 (centres undefined) | 0.5% |
